Screens (PubChem BioAssay)
nsP2pro inh: Primary qHTS for inhibitors of NSP2Pro chikungunya virus (CHIKV). FRET peptide cleavage, nsP2pro, fluorescence 1 h. Potency, µM (series often up to 24.9 µM), for inactives: at the top dose activity change, negative = inhibition, actives largely listed as inhibitors. hit rate 1.1% among 31,000; active means well fitted inhibition curve with a large enough effect; inconclusive means small, poorly fitted or top-dose-only effect; inactive means no such curve, though single readings can be large or run the other way; further: nearly all actives have a fitted effect of over 60% in size; a reference inhibitor and vehicle were the controls
* = called active by the depositor; i = inactive; ? = inconclusive; & = joins results of further samples; [ ] = another dose, or the depositor's remark. On the % scale 0 is the no-effect control and ±100 the full control effect; potency means the concentration at half of the fitted maximal effect.

SMILES | nsP2pro inh
COc1ccccc1NC(=O)N1CCCC2(CCC(=O)N(CC3CC3)C2)C1 (configuration not stated) | 2%
Oc1ccc(Oc2ccccc2F)c2cccnc12 | i
COc1cc(Cl)c(C)cc1NC(=O)c1cc2c(=O)oc3ccccc3c2s1 | -19%
O=C(C[C@@H]1NCCC[C@H]1O)Cn1cnc2cc(Br)c(Cl)cc2c1=O | 2%
CC(C)C(=O)N1CCC(CCOc2ccc(F)cc2)C1 (configuration not stated) | -15%
c1ccc2sc(-c3csc4c3CCNC4)nc2c1 | -8%
CC(=O)c1ccc(N2CCN(C(=O)CCS(=O)(=O)c3ccc4c(c3)oc(=O)n4C)CC2)cc1 | -6%
Cc1cccc(-c2nc3c4c(-c5ccccc5)c(-c5ccccc5)oc4ncn3n2)c1 | -14%
O=C(NCc1ccc(OC(F)(F)F)cc1)C1c2ccccc2C(=O)N1C1CCOCC1 (configuration not stated) | -11%
O=C(c1ccsc1)N1CCC(Nc2cccnc2)C1 (configuration not stated) | 17%
O=S(=O)(Nc1nccs1)c1ccc(NCc2cccc(Cl)c2Cl)cc1 | 1%
COc1ccccc1CCN1CCCC(CN(C)C(=O)CN2C(=O)CNC2=O)C1 (configuration not stated) | 0%

Among those listed so far, 2 contain two or more sulfur atoms:
SMILES | nsP2pro inh
c1ccc2sc(-c3csc4c3CCNC4)nc2c1 | -8%
O=S(=O)(Nc1nccs1)c1ccc(NCc2cccc(Cl)c2Cl)cc1 | 1%

New compounds follow
SMILES | nsP2pro inh
NC(CO)(CO)CO | 0%
O=C(c1cccn1-c1nnc(N2CCCCC2)s1)N1CCN(c2ccc(Cl)cc2)CC1 | ?
CN(C)Cc1ccc(S(=O)(=O)n2ccc(/C=C/C(=O)NO)c2)cc1 | -9%
CC(=O)c1ccc2c(c1)Nc1ccccc1S2 | -8%
Cc1cc2c(s1)c1cnn(Cc3cc(F)c(F)c(F)c3F)c(=O)c1n2C | -12%
C(=Nc1cccnc1)c1cccs1 | -11%
CC(C(=O)O)c1ccc(CC2CCCC2=O)cc1 (configuration not stated) | -2%
CC(C)(C)CN1CC2ON=C(C(=O)O)C2C1 (configuration not stated) | ?
CC(C)N1CC(C(=O)N2CCC(c3ccccc3)CC2)NC1=O (configuration not stated) | -1%[39.2 µM]
C=C1/C(=C/C=C2\CCC[C@]3(C)[C@@H]([C@H](C)/C=C/C(=O)C4CC4)CC[C@@H]23)C[C@@H](O)C[C@@H]1O | ?
O=C(NCCc1ccccc1)Nc1cccn2ncnc12 | -8%
COc1cc(OC)c(C(CC(=O)N2CC(C)CC(C)C2)c2ccc3c(c2)OCO3)c(OCC(N)=O)c1 (configuration not stated) | -5%[39.2 µM]
COc1ccc(-c2cc3n(n2)CCCN(C(=O)c2cc(CN4CCOCC4)on2)C3)cc1 | 16%
Cc1ccccc1-n1nc(-c2c(-c3ccc(F)cc3)nn3c2NC[C@@H](CO)C3)ccc1=O | 8%
COc1cc2c(c(OC)c1O)C(c1ccc(O)cc1)C1C(=O)OC3C(COC(=O)C1=C2)OC(CO)(OC1OC(COC(=O)/C=C/c2ccc(OC4OC(C)C(O)C(O)C4O)cc2)C(O)C(O)C1O)C3O (configuration not stated) | 33%[activator][5.1 µM]
O=S(=O)(NC[C@@H]1CCC[C@H](CNS(=O)(=O)c2c(F)cccc2F)C1)c1ccc2c(c1)OCCO2 | -1%
CCN(CC)C(=O)CC(c1ccc2c(c1)OCO2)c1c(O)cc(OC)cc1OC (configuration not stated) | i
CN(C)C(=S)SSC(=S)N(C)C | 2.8µM*
CN1CC(c2ccccc2)CC2(CCN(C(=O)c3ccccc3)CC2)C1 (configuration not stated) | i
COc1ccc(OCC(=O)Nc2cccc(-c3nc4ccccc4s3)c2C)cc1 | -14%
COc1ccc(N2Cc3cccc(C(=O)O)c3C2=O)c(OC)c1 | -4%
COc1cccc(CNc2ccc(S(=O)(=O)Nc3nc4c(C)cccc4s3)cc2)c1O | ?
Cc1ccccc1C(=O)N1CCCN(c2ccc3nnc(-c4ccccc4)n3n2)CC1 | 0%
CCOc1cc2c(c(F)c1OCC)C(=N)N(CC(=O)c1cc(N3CCOCC3)c(OC)c(C(C)(C)C)c1)C2 | 36%&37%[activator]
COc1ccc(N2CCN(C(=O)Cn3cnc4sc(C)c(S(=O)(=O)N5CCCCC5)c4c3=O)CC2)cc1 | -22%
N[C@H](Cc1ccccc1)C(=O)Nc1ccc(Cl)cc1C(=O)c1ccc[nH]1 | i
O=c1c2ccccc2nc2sc(Nc3cccc(N4CCN5CCCCC5C4)c3)nn12 (configuration not stated) | i
CNC(=O)[C@@H]1C[C@H](Oc2ccccc2)CN1S(=O)(=O)Cc1ccccc1F | -2%
N#Cc1nc(-c2cccc3ccccc23)oc1Nc1ccccc1 | -3%
CC(=O)c1ccc(S(=O)(=O)N2CCn3cccc3C2c2ccc(F)c(F)c2)cc1 (configuration not stated) | -17%
O=C(NCCCN1CCN(c2ccccc2)CC1)c1ccc2nc(CCc3ccccc3)oc2c1 | -9%
CCc1ccccc1NC(=O)CSc1nnc(CC)c(CC)n1 | -16%
Cc1ccc(CN(C(=O)c2ccccc2[N+](=O)[O-])c2ccccn2)cc1 | -12%
CCCCS(=O)(=O)N1CC(F)(F)C[C@H]1c1nnc(C)o1 | -2%
CC(C)CCN1C[C@@H]2C(=O)N(CCc3ccccc3)C(=O)[C@@H]2C1 | 0%
COC(=O)[C@@]1(C)C(=O)C=C[C@]2(C)c3c(O)cc(C(C)C)cc3[C@H](O)[C@@H](OC(C)=O)C12 (some centres not stated) | 2%[10 µM]

Three entries out of the list, sorted by molecular weight, high to low.
SMILES | nsP2pro inh
O=c1c2ccccc2nc2sc(Nc3cccc(N4CCN5CCCCC5C4)c3)nn12 (configuration not stated) | i
CC(C)CCN1C[C@@H]2C(=O)N(CCc3ccccc3)C(=O)[C@@H]2C1 | 0%
N#Cc1nc(-c2cccc3ccccc23)oc1Nc1ccccc1 | -3%

Returning to the listing; the three compounds before the break are reprinted first.
mol	nsP2pro inh
CCCCS(=O)(=O)N1CC(F)(F)C[C@H]1c1nnc(C)o1	-2%
CC(C)CCN1C[C@@H]2C(=O)N(CCc3ccccc3)C(=O)[C@@H]2C1	0%
COC(=O)[C@@]1(C)C(=O)C=C[C@]2(C)c3c(O)cc(C(C)C)cc3[C@H](O)[C@@H](OC(C)=O)C12 (some centres not stated)	2%[10 µM]
CN(Cc1ccccc1)C(=O)c1ccc(CSc2nc3cccnc3n2Cc2ccccc2)cc1	16%
CC(C)C1CCC(C(=O)Nc2ccc(S(=O)(=O)Nc3nccs3)cc2)CC1 (configuration not stated)	-5%
COc1ccc(OC)c(CNC(=O)c2nn(C)c3c2CS(=O)(=O)c2ccccc2-3)c1	-8%
O=C(c1cccc([N+](=O)[O-])c1)N1CCc2c(c3ccccc3n2CC2CC2)C1	-11%
O=C(NCc1ccnc2[nH]ccc12)c1ccccc1Cl	4.5µM*
Cc1cc2c(cc1C)NC(CC(=O)Nc1cccc(C)c1C)C(=O)N2 (configuration not stated)	-25%
CCCCc1nc(Cl)c(CO)n1Cc1ccc(-c2ccccc2-c2nn[nH]n2)cc1	-10%&-8%&7%
Cc1ccc(NS(=O)(=O)c2ccc3c(c2)CCC(=O)N3)cc1C	-2%
Cc1c2cc(c(C(=O)O)c1C)OC1OC(C(O)C(O)C1O)C(O)C(O)C1OC(O2)C(O)C(O)C1O (configuration not stated)	-15%[10 µM]
COc1ccc(CCNCc2ccc(OC)c3ccccc23)cc1	28%
C#C[C@]1(OC(C)=O)CC[C@H]2[C@@H]3CCC4=CC(=O)CC[C@@H]4[C@H]3CC[C@@]21C	2%
COc1cc(C(=O)NCCCc2nc3ccccc3n2CC(C)C)cc(OC)c1OC	-18%
CC(C)=CCC/C(C)=C/CO[C@@H]1O[C@H](CO[C@@H]2O[C@@H](CO)[C@H](O)[C@H]2O)[C@@H](O)[C@H](O)[C@H]1O	-3%[10 µM]
COc1ccc(C(=O)N2CCN(c3ccc4c(c3)CCC(=O)N4)CC2)cc1OC	-15%
CCOc1ccc(NC(=O)Nc2cccc(C)n2)cc1	-25%
Cc1ccc(Cl)cc1N1CCN(C(=O)CN2C(=O)COc3ccc(S(=O)(=O)N4CCCCCC4)cc32)CC1	-2%
Cc1ccc(NC(=O)/C(C#N)=C\c2ccc(Cl)cc2Cl)cc1C	-7%
COC(=O)c1cccc(CNCC2=CC(C)(C)COc3ccc(OC)cc32)c1	i
c1cncc(-c2ccc(CNc3nc(N4CCCC4)nc4ccccc34)cc2)c1	i
COC(=O)C(CC1(O)c2ccccc2N2C(=O)C(C)(C)N(O)C21)n1cnc2ccccc2c1=O (configuration not stated)	?
COc1cccc(NC(=O)CSC2=Nc3ccccc3C3=NC(CC(=O)NCc4cccs4)C(=O)N23)c1 (configuration not stated)	-11%
O=C(CSC1=Nc2ccccc2C2=NC(CCC(=O)NC3CCCCC3)C(=O)N12)Nc1cccc(C(F)(F)F)c1 (configuration not stated)	-13%
CN(C)CCN(Cc1ccccc1)S(=O)(=O)c1ccc(-c2cc(C(F)(F)F)on2)s1	13%
CN(CCc1ccccn1)C(=O)c1cn(Cc2cccc(C(F)(F)F)c2)nn1	4%
COc1cccc(CNC(=O)C(=O)NCC(c2cccs2)S(=O)(=O)c2cccs2)c1 (configuration not stated)	-15%
COc1ccc(CNS(=O)(=O)c2cc(C(=O)Nc3cc(Cl)cc(Cl)c3)ccc2F)cc1	-16%
Cc1cc2c(s1)c1cnn(Cc3cc(F)c(Cl)cc3Cl)c(=O)c1n2C	-3%
CC(O)c1cc2c(s1)c1cnn(Cc3ccccc3F)c(=O)c1n2C (configuration not stated)	-4%
Oc1ccc(CCc2ccccc2)c2cccnc12	i
COc1ccc(CCN2C(=O)NC(NS(=O)(=O)c3ccc(NC(C)=O)cc3)(C(F)(F)F)C2=O)cc1OC (configuration not stated)	-13%
CC(C)Cc1cnc(C2CCCN(C(=O)OC(C)(C)C)C2)[nH]1 (configuration not stated)	?
Clc1ccc2c(c1)C(N1CCNCC1)=Nc1ccccc1O2	11%&6%
Cc1ccc(OCCn2c(CCNC(=O)c3ccccc3C(F)(F)F)nc3ccccc32)cc1	?
C[S+](=O)([O-])NCCNC(=O)c1cccc(-c2ccsc2)c1	i
O=C(O)CCC(=O)N1Cc2ccccc2CC2(CCCN(CC3CCOCC3)C2)C1 (configuration not stated)	-21%
Cc1cccc(-n2c3nc(=O)[nH]c(=O)c-3cc3ccc(Cl)cc32)c1C	-9%
Cc1ccccc1CS(=O)(=O)Cc1ccc(C(=O)NCc2ccc(F)cc2)o1	-14%
O=C(c1cccc(Cl)c1)N(Cc1ccco1)Cc1ccccc1Cl	-10%
O=C(CO)[C@@H](O)[C@H](O[C@@H]1O[C@H](CO)[C@H](O)[C@H](O)[C@H]1O)[C@H](O)CO	26%
O=C(NCCc1ccc(F)cc1)C(=O)NCC(c1cccs1)S(=O)(=O)c1ccccc1 (configuration not stated)	-17%
COc1cc(CN2CCN(Cc3ccc(-n4cccn4)cc3C)CC2CCO)cc(OC)c1 (configuration not stated)	-11%
Cc1ccc(OCCn2c(CCNC(=O)c3ccccc3Br)nc3ccccc32)cc1	-6%
CCN(CC)C(=O)C1CCN(C(=O)c2cnn(-c3ccccc3)c2-n2cccc2)CC1	-14%
C[C@@H]1O[C@@H](O[C@H]2[C@H](O)[C@@H](O)[C@H](OC[C@H]3O[C@@H](OC(=O)[C@]45CCC(C)(C)C[C@H]4C4=CCC6[C@@]7(C)C[C@H](O)[C@H](O[C@@H]8O[C@H](CO)[C@@H](O)[C@H](O)[C@H]8O)[C@@](C)(C(=O)O)C7CC[C@@]6(C)[C@]4(C)CC5)[C@H](O[C@@H]4O[C@H](CO)[C@@H](O)[C@H](O)[C@H]4O)[C@@H](O)[C@@H]3O)O[C@@H]2CO)[C@H](O)[C@H](O)[C@H]1O (some centres not stated)	41%[5.1 µM]
Cc1nn(C)cc1CN(C)C(=O)c1cc2cn(C(C)C)cc2s1	-17%
CC1CN(C(=O)Nc2ccc(C(=O)NCCc3ccc(Cl)cc3)cc2)c2ccccc2S1 (configuration not stated)	-10%
CC(=O)Nc1cc(C(=O)NCc2ccccc2Cl)ccc1Sc1ccc(F)cc1	-15%
CC1(O)CC(O)C2C(C(=O)O)=COC(OC3OC(CO)C(O)C(O)C3OC(=O)/C=C/c3ccc(O)cc3)C21 (configuration not stated)	21%[10 µM]
CC1=C(C(=O)Nc2ccc(C)cc2)C(c2ccc(Cl)cc2)n2nnnc2N1 (configuration not stated)	-12%
COc1ccc2cc3cc(C(=O)N4CCN(c5ccc(C(C)=O)cc5)CC4)sc3nc2c1Cl	-21%

Next records:
mol	nsP2pro inh
Cc1ccc(NC(=O)CSc2ncc(-c3ccccc3)[nH]2)cc1	-27%
NC(=O)c1cccc(-c2cc(OC(=O)NC3CCCCC3)ccc2O)c1	?
CSCCC(N)C(=O)O (configuration not stated)	-15%
COC(=O)/C=C/C12COC(C)(C)C1C(O)C(OC(C)=O)C1(C)C2CCC2(C)C(c3ccoc3)OC(=O)C3OC321 (configuration not stated)	?
Cc1nc2nc(SCC(=O)NC3CCCCC3)nn2c(C)c1Cc1ccccc1Cl	-15%
C[C@H]1/C=C/C=C/C=C/C=C/C=C/[C@@H](O)[C@H](C(=O)O)[C@H](O)C[C@H](O)CCC[C@H](O)C[C@H](O)C[C@H](O)[C@@H](C)C(=O)O[C@@H]1C	-12%[10 µM]
CCNC(=O)[C@@H]1CCCN1C(C)(C)C(=O)NC	-11%[39.2 µM]
O=[S+]([O-])(Nc1cnc2ccccc2c1)c1ccc(NCc2ccc(Cl)cc2O)cc1	-6%

These rows are one share of the data; rates above refer to the full screens.
